# STK33 inh = blocks human STK33 kinase activity | Q9BYT3 | purified STK33, MBP phosphorylation, ADP-Glo luminescence | inhibition, % at 10 µM | 320,000 compounds, 0.073% hits | AID 2661;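 active means inhibition at or above 25%, using the most active replicate where run in duplicate; inactive means inhibition below 25%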
# Target sequence (Q9BYT3 whole entry, looked up): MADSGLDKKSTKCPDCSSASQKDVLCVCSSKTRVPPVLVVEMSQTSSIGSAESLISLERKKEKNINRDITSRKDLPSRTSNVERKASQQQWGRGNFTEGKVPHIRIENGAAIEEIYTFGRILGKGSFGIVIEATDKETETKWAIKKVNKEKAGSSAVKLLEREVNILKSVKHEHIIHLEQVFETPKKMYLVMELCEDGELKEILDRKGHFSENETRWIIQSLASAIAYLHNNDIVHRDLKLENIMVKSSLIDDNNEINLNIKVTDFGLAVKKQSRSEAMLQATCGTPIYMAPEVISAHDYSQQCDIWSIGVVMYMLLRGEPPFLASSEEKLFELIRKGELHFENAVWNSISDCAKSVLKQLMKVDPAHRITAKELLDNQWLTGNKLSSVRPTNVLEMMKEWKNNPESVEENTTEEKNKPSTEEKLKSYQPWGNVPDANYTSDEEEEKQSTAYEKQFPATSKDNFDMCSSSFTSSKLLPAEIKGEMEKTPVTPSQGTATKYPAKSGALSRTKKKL
# Active calls of the source: *. Only part of the results is shown, and most or all hits are left out here.
SMILES,STK33 inh
CC(=O)NC1C(=O)N=C(SCc2ccccc2)NC1=O (configuration not stated),-1.5
C=CCOc1ccc2c(OC)c3ccoc3nc2c1OC,2.3
Cc1onc(-c2ccccc2)c1C(=O)OCC(=O)Nc1ccc2c(c1)OCO2,-1.7
CCC1Oc2ccc(C)cc2N(CC(=O)NCc2cccc(OC)c2)C1=O (configuration not stated),0.4
CC(C)(C)C(=O)N(Cc1ccccc1)c1ccccn1,-0.6
COc1ccccc1-c1c(C(F)(F)F)oc2cc(OC(=O)c3ccccc3[N+](=O)[O-])ccc2c1=O,4.4
Cc1c2c(nc3ccccc13)CC(C)(C)CC2=O,1.9
Cc1c(C(=O)OCc2ccc(F)cc2)sc2nc3n(c(=O)c12)CCC3,-0.7
CC(C)CCN1CCN=C1Nc1ccccc1,-1.8
O=C1CC(N2CCSCC2)C(=O)N1c1cccc(Br)c1 (configuration not stated),-1.0
COc1ccc2cc3c(N)nn(C(=O)Cc4c[nH]c5ccccc45)c3nc2c1,11
COc1ccc(-c2cc3cc(OC)c(OC)cc3cn2)cc1OC,0.1
CCOc1ccccc1-n1c(CNc2ccc(F)cc2)nnc1SCC(=O)NCc1ccco1,-0.3
Cc1cc(C)n(CC(=O)c2cccc([N+](=O)[O-])c2)n1,-3.0
COC(=O)C(CCCCNC(=O)c1ccc([N+](=O)[O-])cc1)NC(=O)c1ccc([N+](=O)[O-])cc1 (configuration not stated),-0.5
Cc1cccc(-n2c(SCC(=O)N3CCC(C(=O)O)CC3)nc3ccccc3c2=O)c1C,0.1
CN(CC(=O)NCCc1ccc(S(N)(=O)=O)cc1)Cc1c(F)cccc1Cl,-1.7
CCC(CC)C(=O)Nc1cc(C(=O)OC)cc(C(=O)OC)c1,-1.3
Cc1c(C(=O)C(=O)N2CCCc3ccccc32)c2ccccc2n1C,2.4
CCCCN(CC)C(=O)CN(C)S(=O)(=O)c1cccc2nsnc12,-0.3
CCOc1cc2nc(-c3ccc(OC)c(OC)c3)nc(N3CCOCC3)c2cc1OC,-1.0
O=C(NN=C1CCCC1)C1COc2ccccc2O1 (configuration not stated),-2.2
Cc1nc(CSc2nc3[nH]ncc3c(=O)n2-c2ccccc2)cs1,-5.2
COc1ccc(COC(=O)c2cccc(S(=O)(=O)N3CCN(C(C)=O)CC3)c2)cc1F,0.2
OCC1(CC2CCCCO2)CCN(Cc2cccc(O)c2)CC1 (configuration not stated),0.0
COc1ccc(C(=O)N(CC(=O)Nc2sc(C)c(C)c2C(N)=O)C2CCCC2)cc1,0.5
O=C(Nc1nnc(CCN2CCCCC2)s1)c1ccc(Br)cc1,-1.7
CCn1c(CNc2ccc(Cl)cc2)nnc1SCc1ccc(C)cc1,-0.8
CN(C)S(=O)(=O)c1ccc(C(=O)OCCN=C2NS(=O)(=O)c3ccccc32)cc1,-2.4
Nc1nc(CN2CCN(c3ccccn3)CC2)nc(Nc2ccc(F)cc2)n1,-3.3
c1cncc(-c2nc3ccccn3c2Nc2ccc3c(c2)OCCO3)c1,-0.5
COc1cc(OC)nc(NC(=O)COC(=O)c2cccc(Cl)c2)n1,1.4
O=C(Nc1ccccc1)OCCOc1cccc(Br)c1,-1.3
Cc1ccc(NC(=O)Cn2ncn3c(cc4ccccc43)c2=O)cc1F,1.2
Cc1cc(=O)oc2cc(OCC(=O)OCC(=O)Nc3ccc(C(C)C)cc3)ccc12,-1.3
O=C(Cn1cnc([N+](=O)[O-])n1)NCCc1ccccc1,0.0
CN1CC(=O)N(CC(=O)Nc2ccc(N(C)C)cc2)c2ccccc2C1=O,-0.5
Cc1[nH]nc(SCC(=O)N(C)c2ccccc2)c1[N+](=O)[O-],-0.5
CC[C@@H](C)[C@H](NC(=O)OC(C)(C)C)c1nnc(S(=O)(=O)Cc2cc(C)ccc2C)o1,0.6
Cc1ccc(NCc2nnc(SCC(=O)c3ccc4c(c3)OCCO4)o2)c(C)c1,-1.6
O=C(Nc1ccc(S(=O)(=O)N2CCCC2)cc1)C1CC(=O)N(c2ccccc2)C1 (configuration not stated),-1.5
Cc1nn(C)c(C(=O)Sc2ccccc2)c1[N+](=O)[O-],2.4
CCCc1nc(SCC(=O)NNC(=O)C2CCCCC2)c2ccccc2n1,-0.8
COc1ccc(/C=N/Nc2nnc(-c3ccccc3)c(=O)[nH]2)cc1,-0.5
CC(=O)Nc1ccc(Cl)cc1C(=O)O,-1.0
O=S(=O)(NC(=S)c1ccccc1)c1ccc(Cl)cc1,-0.2
CC(=O)CCn1cnc([N+](=O)[O-])n1,0.6
O=C(CCS(=O)(=O)c1ccccc1)Nc1ccc(Cl)cn1,-1.1
COc1ccc(-c2nn(-c3ccccc3)cc2/C=N/Nc2ccc(S(N)(=O)=O)cc2[N+](=O)[O-])cc1OC,0.0
CCC(C)Nc1c2c(nc3c(-c4ccccc4)c(C)nn13)CCC2 (configuration not stated),-1.4
Cc1ccc(NC(=O)CSCC(=O)N2CCOCC2)cc1,-1.0
COc1ccc(CN2C(=O)c3cccnc3C2O)cc1 (configuration not stated),0.1
O=C(N/N=C/c1sc(=O)[nH]c1-[n+]1ccccc1)c1ccccc1[O-],-0.8
CCC1(CC)C(=O)C2=C3C1[C@H](C(=O)OC)C=C(C(=O)OC)C[C@H]3[C@H]1C(=O)N(Cc3ccccc3)C(=O)[C@H]1[C@H]2C (some centres not stated),-1.1
COc1cccc(N2CCN(S(=O)(=O)c3cc4c(cc3C)N(C)CCO4)CC2)c1,-1.3
CCCCCN1CC(O)=C(c2nc3ccccc3[nH]2)C1=N,-1.0
COc1ccccc1N1CCN(C(=S)Nc2ccc3nc(N4CCOCC4)cc(C)c3c2)CC1,0.2
COc1ccc(S(=O)(=O)N2CCCC2c2cccs2)cc1 (configuration not stated),0.2
O=C(NCC(=O)N(Cc1cccs1)C(C(=O)NC1CCCCC1)c1ccco1)c1cccs1 (configuration not stated),1.2
COc1cc(C(=O)Nc2nc(C)cc(C)n2)cc(OC)c1OC,-0.6
# Next part.
SMILES,STK33 inh
CC(C)C(OC(=O)c1ccco1)C(=O)NC1CCCC1 (configuration not stated),-0.3
CCOC(=O)C1CCCN(C(=O)c2sc3nc(C)nc(N4CCOCC4)c3c2C)C1 (configuration not stated),-1.1
NC(=O)C1CCN(C(=O)c2ccc3nc(N4CCCCC4)sc3c2)CC1,0.1
Cc1ccc(S(=O)(=O)N2CCOC2CNC(=O)C(=O)NCC(C)C)cc1 (configuration not stated),0.5
CCCC(=O)OCC(=O)Nc1ccc([N+](=O)[O-])cc1C#N,0.3
O=C(C1CC1)N1CCc2cc(S(=O)(=O)N3CCN(c4ccccc4)CC3)ccc21,-1.4
O=C1C2C3C=CC(C3)C2C(=O)N1c1ccc(Cc2ccncc2)cc1 (configuration not stated),0.5
CCOC(=O)N1CCC(N2Cc3cccc(C(=O)Nc4ccc(CC)cc4)c3C2=O)CC1,-1.6
Cc1cc2cc(C)c3nnc(SCC(=O)N4CCN(C(=O)c5ccco5)CC4)n3c2cc1C,-1.2
COc1ccc(-n2nc(C(=O)NCC(=O)N3CCOCC3)c3ccccc3c2=O)c(OC)c1,-2.1
Cc1cc(C)n(-c2nc3ccccc3n3cnnc23)n1,-0.9
CCOC(=O)CN1C(=O)N[C@@H](CCc2ccccc2)[C@H](C(C)=O)[C@H]1C,-0.7
CCOC(=O)c1ccc(NC(=O)C2(c3ccc(OC)cc3)CCCC2)cc1,-0.1
COc1ccc(NC(=O)C(=O)NCCN2CCN(C(=O)C(c3ccccc3)c3ccccc3)CC2)cc1,0.5
COc1ccc(C(=O)OC(C(=O)c2ccc(C)cc2)c2ccccc2)cc1 (configuration not stated),-4.8

# Ordered by value in STK33 inh (low to high): 3 from the list above
molecule	STK33 inh
CCOC(=O)CN1C(=O)N[C@@H](CCc2ccccc2)[C@H](C(C)=O)[C@H]1C	-0.7
CC(C)C(OC(=O)c1ccco1)C(=O)NC1CCCC1 (configuration not stated)	-0.3
CCOC(=O)c1ccc(NC(=O)C2(c3ccc(OC)cc3)CCCC2)cc1	-0.1

# Gathered by group: the compounds so far with an NH in an aromatic ring.
SMILES,STK33 inh
COc1ccc2cc3c(N)nn(C(=O)Cc4c[nH]c5ccccc45)c3nc2c1,11
Cc1nc(CSc2nc3[nH]ncc3c(=O)n2-c2ccccc2)cs1,-5.2
Cc1[nH]nc(SCC(=O)N(C)c2ccccc2)c1[N+](=O)[O-],-0.5
COc1ccc(/C=N/Nc2nnc(-c3ccccc3)c(=O)[nH]2)cc1,-0.5
O=C(N/N=C/c1sc(=O)[nH]c1-[n+]1ccccc1)c1ccccc1[O-],-0.8
CCCCCN1CC(O)=C(c2nc3ccccc3[nH]2)C1=N,-1.0

# Next part.
SMILES,STK33 inh
COc1ccc(S(=O)(=O)NCc2ccccn2)cc1NC(=O)c1ccccc1C,-0.5
CCOC(=O)C1CCN(CC(=O)c2c(C)[nH]c3cc(C)ccc23)CC1,0.2
Cc1cc(NS(=O)(=O)c2ccc(NC(=O)c3cc4ccccc4o3)cc2)nc(C)n1,3.3
CC1CCCN(CCCNC(=O)c2nn(C)c3c2CSc2ccccc2-3)C1 (configuration not stated),8.0
COc1ccc(CCN(C)C(=O)c2cc(-c3ccc(C)cc3)nc3ccccc23)cc1OC,-1.8
O=C(COc1ccccc1Cl)Nc1ccc(CN2CCOCC2)cc1,-0.1
O=C1c2ccccc2C(=O)N1CCCc1nc(-c2ccccc2)no1,0.0
CCN1CCN(C(=O)CN(c2cccc(Br)c2)S(=O)(=O)c2ccccc2)CC1,-1.3
CC(=O)c1ccc(Sc2ccccn2)c([N+](=O)[O-])c1,-3.2
CN(C)C(=O)c1cc(Br)ccc1Cl,0.1
CC(OC(=O)CCOc1ccccc1)C(=O)NC1CC1 (configuration not stated),-1.1
Cc1onc(-c2ccccc2)c1C(=O)Nc1c(C)n(C)n(-c2ccccc2)c1=O,-1.1
CN1CCN(CC(=O)C23CC4CC(CC(C4)C2)C3)CC1,-0.1
CCC1CCCCN1C(=O)CN1C(=O)CSC1=O (configuration not stated),-0.3
COc1cc(-c2c(-c3ccc4c(c3)OCO4)noc2-c2ccsc2)ccc1F,-0.5
CCCC(=O)n1nc(-c2ccc(OC)cc2)nc1N,1.6
O=C(NCC1CCCN(Cc2nccs2)C1)c1cccc2ccccc12 (configuration not stated),-0.8
CC(=O)c1cccc(NC=C2C(=O)OC3(CCCCC3)OC2=O)c1,0.8
O=C(c1cc(-c2ccc(Cl)cc2)n[nH]1)N1CCN(C(=O)c2ccco2)CC1,-1.4
CSc1nc(O)c(Nc2cccc(Cl)c2)c(=O)[nH]1,-0.8
CC(C)CCN(C(=O)Nc1ccccc1)C(C)c1cccs1 (configuration not stated),0.6
CCc1nc(SCC(=O)Nc2cccc(C(F)(F)F)c2)c2c(=O)n(C)c(=O)n(C)c2n1,-1.3
O=[N+]([O-])c1cccc(-c2nc(NCc3ccccc3)c3ccccc3n2)c1,0.1
COc1ccc(N2C(=O)C(Cl)=C(N3CCCC3)C2=O)cc1,0.0
COc1cccc(-c2nn(-c3ccccc3)cc2CN(C)C(C)c2ccon2)c1 (configuration not stated),0.5
COc1ccccc1Nc1nc(-c2sc(NC(=O)c3cccc(Cl)c3)nc2C)cs1,0.6
Cc1ccc(-c2nnc(N3CCC(C)CC3)c3ccccc23)cc1C,0.0
O=C(CCCSc1nc2ccccc2c(=O)[nH]1)c1ccc(F)cc1,-1.3
NC(=S)N/N=C/c1ccc(C23CC4CC(CC(C4)C2)C3)cc1,6.5
CCN(Cc1ccccc1)C(=O)COC(=O)CNC(=O)c1ccc(C)s1,-1.7
Cc1cc(=O)[nH]c(Sc2c(-c3ccccc3)c3ccccc3[nH]c2=O)n1,-1.0
O=C(Cc1ccccc1)N1CCC(c2nc(-c3ccc(F)cc3)no2)CC1,-0.4
COc1ccc(C)cc1S(=O)(=O)N1CCC(C)CC1,0.2
CC(C)NC(=O)Cn1c(=O)cnc2ccccc21,-1.0
CC1CCN(C2(O)C(=O)Nc3ccc(Br)cc32)CC1 (configuration not stated),2.3
CCOC(=O)C1CCN(C(=O)CN2C(=O)c3cccnc3Oc3ccccc32)CC1,-1.5
CC(C)c1ccc(N(CC(=O)NCc2ccc(F)cc2)C(=O)c2csnn2)cc1,-2.9
O=C(CNCc1ccc(F)cc1)Nc1ccccc1-c1ccccc1,-1.0
FC(F)c1nnc2c(Cl)cc(C(F)(F)F)cn12,-1.6
COc1ccccc1Nc1nc(N)nc(CN2CC(C)CC(C)C2)n1 (configuration not stated),-1.6
Cc1ccc(C)c(C(=O)CCC(=O)NNC(=O)Cn2nc(C)cc2C)c1,-0.2
O=C(c1ccco1)N1CCC(n2nnc3ccccc32)CC1,0.9
Cc1ccc(C(=O)c2ccccc2C(=O)OCC(=O)NC(C)(C)C)cc1,0.0
CCC1COCCS(=O)(=O)N1Cc1cccc(C(F)(F)F)c1 (configuration not stated),-0.3
COC1CCN(Cc2c(C(=O)N3CCN(C4CCCCC4)CC3)nc3ccccn23)CC1,-0.2

# Pulled by compound from above (three):
SMILES,STK33 inh
Cc1[nH]nc(SCC(=O)N(C)c2ccccc2)c1[N+](=O)[O-],-0.5
NC(=S)N/N=C/c1ccc(C23CC4CC(CC(C4)C2)C3)cc1,6.5
CCOc1ccccc1-n1c(CNc2ccc(F)cc2)nnc1SCC(=O)NCc1ccco1,-0.3

# The main list resumes, repeating the two entries before the break.
SMILES,STK33 inh
CCC1COCCS(=O)(=O)N1Cc1cccc(C(F)(F)F)c1 (configuration not stated),-0.3
COC1CCN(Cc2c(C(=O)N3CCN(C4CCCCC4)CC3)nc3ccccn23)CC1,-0.2
CC1CCN(CC(=O)N2c3ccccc3CC2C)CC1 (configuration not stated),-0.9
COc1ccc(Nc2ncnc3c2cnn3Cc2ccccc2)cc1OC,-0.8
Cc1ccc2cc(COC(=O)c3ccco3)c(=O)[nH]c2c1,0.9
O=C(Nc1ccc(Br)cc1)C1CC(O)CN1C(=O)Oc1ccccc1 (configuration not stated),0.9
O=[N+]([O-])c1cc(-c2nc3nc4ccccc4nc3n2CCc2ccccc2)cc([N+](=O)[O-])c1,-0.2
NC(=O)CN1C(=O)C(O)(CC(=O)/C=C\c2ccc3c(c2)OCO3)c2ccccc21 (configuration not stated),-1.5
CC(C)NCc1nnc(-c2ccccc2Cl)o1,-1.2
COc1ccc(C2(CNC(=O)c3ccc(Br)o3)CCOCC2)cc1,0.3
O=C(CCC(=O)NC1CCCCC1)N/N=C/c1ccncc1,-0.2
COc1ccc2c(c1)C=C([C@@H]1C[C@H]3CN(c4ccccc4)C(=O)[C@]34CCCN14)CO2,-1.5

# Screens: PubChem BioAssay, Broad Institute
